Mtb betalactam – beta-lactam sensitization of Mtb H37Rv | M. tuberculosis H37Rv growth with meropenem, percent inhibition; hits of this screen are not shown here | inhibition, % at 25 µM | hit rate 0.27% among 330,000;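 active means about 74% or more and at least 40 points above the plate without the antibiotic, then above 30% in a dose series; inconclusive means first-round hits that could not be retested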;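 further: growth measured after seven days incubation then overnight dye step; 0% = bacteria only wells and 100% = bacteria with antibiotic; twin plates without the antibiotic show which effects depend on it; some results filed as inactive read as strong as hits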
Mtb H37Rv – M. tuberculosis H37Rv growth inhibitors, H37Rv strain (AID 1626) | hit rate 0.95% among 220,000 | M. tuberculosis H37Rv growth inhibition; higher % means a stronger effect | inhibition, % at 10 µM, or IC50 in µM where a hit was titrated;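 active means confirmed in a dose series; inconclusive means inhibition above 80% but not taken into the dose series; inactive means below 80% or under 30% at every dose of the series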;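 further: bacteria incubated seven days before Alamar blue readout; 0% = bacteria only wells and 100% = bacteria with antibiotic wells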
RecA intein inh – blocks M. tuberculosis RecA intein splicing; P9WHJ3; cell-free RecA intein splicing, fluorescence; inhibition, %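 (about 9 µM by stock and volumes)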; hit rate 0.75% among 290,000; AID 2221; in the data active means inhibition above about 30%; inconclusive means no clear call, values can overlap the other calls;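 further: 0% = vehicle wells and 100% = reference inhibitor control wells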
Target sequence (P9WHJ3 whole entry, looked up): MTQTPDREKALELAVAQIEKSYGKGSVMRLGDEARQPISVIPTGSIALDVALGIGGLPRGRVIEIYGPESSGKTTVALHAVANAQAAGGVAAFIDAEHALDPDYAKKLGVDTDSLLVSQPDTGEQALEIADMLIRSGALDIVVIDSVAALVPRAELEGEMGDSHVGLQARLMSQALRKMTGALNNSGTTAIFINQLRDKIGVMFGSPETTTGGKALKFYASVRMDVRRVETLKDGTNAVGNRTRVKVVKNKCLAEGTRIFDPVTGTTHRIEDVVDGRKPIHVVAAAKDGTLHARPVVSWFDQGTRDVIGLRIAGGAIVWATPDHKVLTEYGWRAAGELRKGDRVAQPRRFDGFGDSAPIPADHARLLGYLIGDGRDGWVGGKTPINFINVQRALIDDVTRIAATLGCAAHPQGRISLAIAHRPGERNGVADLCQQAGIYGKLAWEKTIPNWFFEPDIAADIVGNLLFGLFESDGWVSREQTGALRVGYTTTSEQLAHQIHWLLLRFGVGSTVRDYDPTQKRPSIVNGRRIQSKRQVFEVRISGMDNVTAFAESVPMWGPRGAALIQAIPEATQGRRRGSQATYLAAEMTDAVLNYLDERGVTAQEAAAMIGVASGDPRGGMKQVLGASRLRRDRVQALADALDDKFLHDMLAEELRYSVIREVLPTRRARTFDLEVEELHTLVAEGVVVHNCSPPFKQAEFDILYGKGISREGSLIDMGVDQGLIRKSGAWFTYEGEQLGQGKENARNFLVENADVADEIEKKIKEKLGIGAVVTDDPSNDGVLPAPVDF
YopH PTP inh – YopH (Yersinia) phosphatase inhibition; fluorescence Ex485/Em525; inhibition, %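 (about 10 µM by stock and volumes)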; hit rate 0.16% among 140,000; AID 898;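 active means inhibition of 50% or more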;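 further: controls were vehicle for no effect and minimum signal wells for full effect; inactives centre near -20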
Arbovirus inh – antivirals against arbovirus infection; inhibition, % at 10 µM; hit rate 0.37% among 200,000; arbovirus infection cell-based antiviral screen;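 active means inhibition from about 30%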;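 further: bluetongue infection of BSR cells; cell survival read as ATP light after 72 h; 0% = infected wells without compound and 100% = uninfected wells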
Arbovirus inh repeat – second read-out of Arbovirus inh, no call of its own (marks repeat the call); inhibition, %; measured here: 10K subset replicate screen; many hits read low in the repeat;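 first of two repeat runs on a subset; 0% = infected and 100% = uninfected wells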
Starred values were filed as active, the others as inactive; u = inconclusive; x = not tested or not shown; & = joins results of further samples. The list is partial. The share of hits here may be higher or lower than overall.

SMILES	Mtb betalactam	Mtb H37Rv	RecA intein inh	YopH PTP inh	Arbovirus inh	others
O=C1CC(N2CCC(c3nc4ccccc4o3)CC2)C(=O)N1Cc1cccs1 (stereo not given)	-5	-2%	-3.1	-39	3
COc1ccccc1NC(=O)Cn1cnc2sc(C(=O)NCc3ccco3)c(C)c2c1=O	-12	-4%	-7.4	-11	-2
CCc1nnc(NC(=O)c2ccc(S(=O)(=O)N3CCCC(C)C3)cc2)s1 (stereo not given)	-11	x	1.1	x	x
Cc1ccc(C2CC(=O)Nc3c2ccc2ccccc32)cc1[N+](=O)[O-] (stereo not given)	-3	6%	-0.9	-6	15
Cc1ccc(S(=O)(=O)c2ccc(Cl)cc2)cc1S(=O)(=O)NC(C)C(=O)O (stereo not given)	-4	3%	1.1	-44	9
COc1ccc(S(=O)(=O)N2N=C(c3ccc(NS(C)(=O)=O)cc3)CC2c2ccco2)cc1 (stereo not given)	4	4%	2.9	x	2
C=CCN1C(=O)[C@@H]2Cc3c([nH]c4ccccc34)C(c3ccc(O)cc3)N2C1=S (stereo not given in full)	42	x	19	x	x
CCOc1ncccc1C(=O)NC(C)CCc1ccccc1 (stereo not given)	9	x	2.2	x	x
COc1ccccc1N1CCN(Cc2ccc(Br)cc2)CC1	-3	x	4.4	x	x
O=C(CCC1CCCC1)Nc1ccc([N+](=O)[O-])cn1	2	-4%	-0.5	-27	-1
Cc1ccc(S(=O)(=O)Cc2ccc(C(=O)NCc3cccs3)o2)cc1	-18	-10%	-0.3	16	1
CCc1ccc(CN(C)Cc2nc(COc3ccccc3)no2)nc1	35	2%	-3.5	x	4
O=C(Oc1cccc2cccnc12)c1cccc([N+](=O)[O-])c1	100	u	-0.3	x	5
COc1ccc(C2NC(=O)NC(C)=C2C(=O)OC2CCCC(C)C2)cc1 (stereo not given)	-2	x	-4.4	x	x
Cc1ccc(C)c(N2CCN(S(=O)(=O)c3ccc(-c4cc(C)no4)s3)CC2)c1	4	x	1.3	x	x
Cn1c(O)c(N=NC(=O)c2cc(-c3cccs3)nc3ccccc23)c2ccccc21	-4	33%	0.2	7	-20
Nc1ccccc1C(=O)NNC1=C(C(=O)C(F)(F)F)CCC1	14	0%	x	x	x
CC1=C(C(=O)OCC2CCCCC2)C(c2ccc(F)cc2)NC(=O)N1 (stereo not given)	4	x	10	x	x
C=CCC(C(=O)OC)(C(=O)OC)c1ccc([N+](=O)[O-])cc1[N+](=O)[O-]	-1	0%	x	x	1
CCC1(C)Cc2c(sc3nnn(CC(=O)Nc4ccc(Cl)cc4)c(=O)c23)CO1 (stereo not given)	-6	-2%	x	-30	-5
N#Cc1cccc(NC(=O)CSc2ccccc2)c1	-4	-2%	0.5	17	5
CCN(CC)CCCNC(=O)C1CCN(C(=O)c2cc3sccc3n2Cc2ccc(F)cc2)CC1	-2	-10%	0.4	0	8
CCCCCNc1c(C(=O)OCC)c(=O)[nH]c2ccccc12	4	8%	0.3	-22	-3
O=C(CSc1nnnn1-c1ccccc1)Nc1ncc(Cc2ccccc2Cl)s1	-3	1%	-2.6	-16	9
COC(=O)c1ccc(NC(=O)Nc2cccc(F)c2)cc1	-9	-1%	4.1	x	-5
Cc1nc2ccc(NC(=O)CCS(=O)(=O)c3ccc(Cl)cc3)cc2s1	79	70%	3.2	-28	9
CCCCc1oc2c(c(=O)c1C)C(=O)CC(c1ccccc1)C2 (stereo not given)	0	-2%	3.7	-13	22
CC(C)(C)S(=O)(=O)c1cnc2c(-c3ccsc3)cnn2c1N	5	3%	-1.2	x	-3
S=C(NCCc1ccccc1)N/N=C/c1ccccc1Cl	-7	3%	3.3	-32	4
CCCC(C(=O)NC(C)(C)C)N(CC1CCCO1)C(=O)c1snc(C(N)=O)c1N (stereo not given)	4	10%	-1.4	x	12
CSc1ccc(CNC(C)(C)CO)cc1	3	-3%	-4.6	x	-4
COC(=O)[C@@H]1CCCN1C(=O)CCc1nnc(C2CCCCC2)o1	-8	4%	-2.6	x	2
Cc1cc(NC(=O)CSCC(=O)Nc2ccc(Cl)c(C(F)(F)F)c2)no1	-8	x	3.0	x	x
O=C(O)CCSc1nnc(COc2cccc3cccnc23)n1-c1ccccc1	-7	4%	0.0	x	2
O=C1c2ccccc2C(=O)N1CCSC(=S)N1CCOCC1	10	-8%	1.5	-33	5
CNC(=O)[C@@H]1C[C@H]1[C@@H](NC(=O)OCc1ccccc1)c1ccccc1	-3	-11%	-1.7	-10	-7
CCOC(=O)C(Sc1cc(C)nc(N)n1)C(C)=O (stereo not given)	1	-4%	-9.5	-14	4
O=C1C2C3CCC(C3)C2C(=O)N1c1ccc2ccccc2c1 (stereo not given)	-5	x	-0.3	x	x
COc1ccc(Cl)c(N2CCN(CCCNC(=O)Nc3ccc(C)cc3)CC2)c1	1	x	4.0	15	-35
COc1ccc(NC(=O)c2ccc3nccnc3c2)cc1	-3	-7%	1.4	-13	-3
c1ccc(C(c2ccccc2)N2CCN(Cc3nnnn3C3CCCCC3)CC2)cc1	13	-15%	22	-16	-9
COc1cc2cc(C(c3nnnn3C3CCCC3)N(C)C3CCCCC3)c(=O)[nH]c2cc1OC (stereo not given)	55	-2%	-5.4	-21	7
CN(C)C(CNC(=O)c1ccco1)c1cccs1 (stereo not given)	-8	x	5.3	x	x
CCOC(=O)N1CCC(NC(=O)C2CCCN(C(=O)c3cc4sccc4n3C)C2)CC1 (stereo not given)	-1	-2%	11	-40	1	Arbovirus inh repeat=0
Oc1[nH]c2ccccc2c1N=Nc1cccc(Cl)c1	4	x	-5.3	x	x

By substructure: the compounds so far containing a COOH group.
SMILES	Mtb betalactam	Mtb H37Rv	RecA intein inh	YopH PTP inh	Arbovirus inh	others
Cc1ccc(S(=O)(=O)c2ccc(Cl)cc2)cc1S(=O)(=O)NC(C)C(=O)O (stereo not given)	-4	3%	1.1	-44	9
O=C(O)CCSc1nnc(COc2cccc3cccnc23)n1-c1ccccc1	-7	4%	0.0	x	2

Going on with the list.
SMILES	Mtb betalactam	Mtb H37Rv	RecA intein inh	YopH PTP inh	Arbovirus inh	others
Cn1nnnc1SCC(=O)N1c2ccccc2CCc2ccccc21	4	-6%	0.6	-25	1
CCCn1c(SCC(=O)c2cc(OC)ccc2OC)nnc1-c1ccco1	-2	7%	-0.2	-35	3
COC(=O)c1cc(CSc2nc3ccccc3c(=O)n2C)oc1C	3	x	3.1	x	x
CN1CCN(S(=O)(=O)c2ccc(NC(=S)NC(=O)C3CC3)cc2)CC1	0	-2%	-0.6	-35	5
CC(=O)N1CCC(N2CCN(c3ccccc3F)CC2)CC1	-6	-1%	-0.5	3	2
CCC(C)c1c(O)nc(SCC(=O)N2CCCCC2)[nH]c1=O (stereo not given)	13	x	0.5	x	x
CC1=NN(c2ccccc2)C(=O)/C1=C/c1c(O)[nH]c(=S)[nH]c1=O	78	-4%	20	-5	6
COc1cccc(C(=O)NCCSc2ccc(F)cc2)c1	-2	-8%	-0.6	x	-10
OC1CCN(Cc2cccc(Oc3ccccc3)c2)CC1	-10	0%	-0.5	-37	-7
CN1/C(=C\C(=O)Nc2cccnc2)c2ccccc2CC1(C)C	-5	x	-3.9	2	15
CCc1nnc(NC(=O)c2cccnc2SC)s1	6	-1%	-2.3	x	2
CC(C)CN1C(=O)/C(=C/c2cccs2)NC1=S	-18	2%	4.1	-17	-9
Cc1sc(NC(=O)c2ccc(F)cc2)c(CN2CCCCCC2)c1C	-6	1%	-1.0	-13	13
CC(C)C(C(=O)N1CCOCC1)N1C(=O)c2ccccc2C1=O (stereo not given)	8	-6%	-0.8	-42	16
COCCC(=O)N1CCc2ccc(NC(=O)c3ccc(C(F)(F)F)cc3)cc2C1	5	x	-0.4	x	x

Next section; it opens with the 4 that closed the last part.
SMILES	Mtb betalactam	Mtb H37Rv	RecA intein inh	YopH PTP inh	Arbovirus inh	others
CC(C)CN1C(=O)/C(=C/c2cccs2)NC1=S	-18	2%	4.1	-17	-9
Cc1sc(NC(=O)c2ccc(F)cc2)c(CN2CCCCCC2)c1C	-6	1%	-1.0	-13	13
CC(C)C(C(=O)N1CCOCC1)N1C(=O)c2ccccc2C1=O (stereo not given)	8	-6%	-0.8	-42	16
COCCC(=O)N1CCc2ccc(NC(=O)c3ccc(C(F)(F)F)cc3)cc2C1	5	x	-0.4	x	x
CCOc1ccc2ncc(C(=O)c3ccc(OC)cc3)c(N3CCN(CC)CC3)c2c1	-3	4%	-0.7	x	-6
Cc1cccc(NC(=S)N=Nc2c(O)[nH]c3ccccc23)c1	9	57%	15	-24	-30
CC(C)(C)OC(=O)NNC(=O)NC12CC3CC(CC(C3)C1)C2	4	-3%	0.0	x	7
CCOC(=O)CSc1nnc(CNC(=O)c2cccs2)n1-c1ccccc1	11	x	0.5	-36	6
C[N+](C)(C)Cc1ccccc1	12	0%	1.4	-19	-6
O=c1[nH]c2cc(S(=O)(=O)CCO)ccc2o1	-1	-6%	-0.1	x	x
COc1ccccc1C(C#N)N1N=C(C)CC1(C)C (stereo not given)	5	-1%	-4.8	x	2
Cc1cc(C)c2oc(=O)cc(CN3CCN(Cc4ccc5c(c4)OCO5)CC3)c2c1	x	14%	x	-28	-1
O=C(Nc1nccs1)C1CC2CCC1C2 (stereo not given)	0	-5%	2.4	-23	8
Cc1ccc2c(CN3CCN(Cc4ccc5c(c4)OCO5)CC3)cc(=O)oc2c1C	0	-3%	-2.3&1.1	-50	-1
CCc1nnc(NC(=O)CSc2nc(-c3ccccc3)c(-c3ccccc3)o2)s1	2	-2%	0.9	-19	-23
O=C(CN1CCOCC1)Nc1cc([N+](=O)[O-])ccc1Cl	-4	-2%	-7.4	x	11
O=C(Nc1cccc2c1CCCC2)c1ccc(Cl)c([N+](=O)[O-])c1	3	9%	-2.9	-48	-5
O=S(=O)(NC(=NCc1ccccc1)c1ccc(F)cc1)c1ccc(Cl)cc1	-11	-1%	0.5	x	3
O=c1cc(COc2ncnc3ccccc23)nc2sccn12	-4	-10%	-4.4	x	x
COc1ccc(CNS(=O)(=O)c2cccc(S(=O)(=O)N3CCOCC3)c2)cc1	-4	-5%	-0.4	6	3
CCOC(=O)C1(CCCc2ccccc2)CCN(C(=O)c2cc(C)nn2CC)CC1	2	x	6.0	x	x
Cc1cc(C)c(S(=O)(=O)N2CCCC2=O)cc1N(C)S(C)(=O)=O	4	x	-2.7	x	x
CC(C)n1cc(CN2CCC(C(=O)Nc3ccc(Oc4ccccc4F)cc3)CC2)cn1	-3	x	-1.9	x	x
O=C(c1ncc[nH]1)c1ccccc1Cl	8	x	-2.2	x	x
COc1ccc(/C=C/C(=O)Nc2c(C)nn(C)c2C)cc1COc1ccc(Br)cc1	-12	-4%	-0.3	-44	-9
O=C(Cn1cccn1)N1CCCC(N2CCN(Cc3ccc4c(c3)OCO4)CC2)C1 (stereo not given)	-5	x	-0.2	x	x
COc1ccc(NC(=O)N2CCN(c3cccc(C(F)(F)F)c3)CC2)cc1	-9	-3%	-1.9	-8	10
COc1cc2c(cc1OC)C(c1ccccc1F)OC(=O)C2 (stereo not given)	2	-7%	-0.8	-51	-7
O=C(Nc1c(C(=O)C2CC2)oc2ccccc12)c1ccc(Cl)cc1	3	-4%	-2.1	-42	-3
O/N=C/c1ccnc(SCc2ccc(Cl)cc2)n1	-2	12%	13	x	x
CCCCOc1ccc(C2CC(=O)N(C)C2=O)cc1 (stereo not given)	-1	-54%	-0.5	21	-7
CCN(CC)C(=O)CSc1nc2c(sc(=S)n2-c2ccccc2)c(=O)n1-c1ccc(OC)c(OC)c1	7	x	-53	x	x
CCOc1ccccc1Nc1nc2ccccc2n2cnnc12	-8	x	-1.8	-16	-9	Arbovirus inh repeat=-8
Cn1c(=O)[nH]c(=O)c2c1nc(Sc1nc3ccccc3s1)n2Cc1ccccc1	4	5%	0.2	-41	-2
Cc1ccc(C(C)C)c(OCC(O)CNC2CCCC2)c1 (stereo not given)	-12	x	-0.3	x	x
COC(=O)c1cc(S(=O)(=O)N2CCCC(C)C2)cn1C (stereo not given)	-4	x	3.3	x	x
CC/C(=N\NC(=O)c1ccc(CN(C)S(=O)(=O)c2ccc(C)cc2)cc1)c1ccc(OC(F)F)cc1	4	2%	-3.2	-28	-6
Nc1n[nH]c(-c2ccccc2)n1	-12	-7%	x	12	4

Pulled by structure from the entries so far:
SMILES	Mtb betalactam	Mtb H37Rv	RecA intein inh	YopH PTP inh	Arbovirus inh	others
CC/C(=N\NC(=O)c1ccc(CN(C)S(=O)(=O)c2ccc(C)cc2)cc1)c1ccc(OC(F)F)cc1	4	2%	-3.2	-28	-6
Nc1n[nH]c(-c2ccccc2)n1	-12	-7%	x	12	4
Cc1ccc(C(C)C)c(OCC(O)CNC2CCCC2)c1 (stereo not given)	-12	x	-0.3	x	x

Screens (PubChem BioAssay)
